Assay outcomes: PubChem BioAssay, ICCB-Longwood Screening Facility, Harvard Medical School
KSHV LANA nucl: LANA-nucleosome interaction inhibition; FITC-LANA1-23 / chicken nucleosome fluorescence polarization; hits give low values; 51,000 compounds, 0.3% hits; AID 720717; z-score (test concentration not listed);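 active = both repeat wells score below -2 in polarization z-score versus plate sample wells, excluding overly bright wells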;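 note: 100 nL library stock added to about 30 µL; numbers are from one replicate; some results filed as inactive read as strong as hits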
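Assay system: purified chicken nucleosomes with FITC-labelled LANA N-terminal peptide (1-23) / Probe or stimulus: 50 nM FITC-LANA1-23 probe / Compound dosing: pin-transferred compound, 100 nL / Times: compound with peptide–nucleosome mix 10–45 min at room temperature / Technique: fluorescence polarization, 480 nm excitation, 535 nm parallel and perpendicular emission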
Ab BasE inh: inhibitors of Acinetobacter baumannii siderophore enzyme BasE | purified BasE, fluorescence polarization binding displacement | inhibition, % (no concentration beside the values) | 84,000 compounds, 0.1% hits;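 active = both replicates above 25% with normal brightness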;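 note: 0% = negative plate control signal and 100% = positive plate control signal; stock transfer was 100 nL into about 30 µL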
The depositor's hits bear a star; . = not tested or not shown; & = joins results of further samples. Not all compounds are listed; count on the stated rates, not on these rows.

Structure	KSHV LANA nucl	Ab BasE inh
CC(C)n1c(SCCC(=O)O)nc2ccccc21	-0.31	0.9
Cc1[nH]n(-c2ccccc2)c(=O)c1C1=NCCCCC1	.	1.5
Cc1ccc(SC(=O)c2ccco2)cc1	-0.21	-0.2
c1ccc(CNc2nc3ccccc3[nH]2)cc1	.	-0.9
Oc1cccc(/C=N/N=C/c2cccc(O)c2O)c1O	-0.034	17
CC1CCN(CC(=O)Nc2ccc3c(c2)OCO3)CC1	.	0.6
CSc1nc2[nH]ncc2c(=O)[nH]1	-0.059	0.1
CN1/C(=C\C=N\NC(=O)C2COc3ccccc3O2)C(C)(C)c2ccccc21 (stereo unspecified)	.	3.9
N#Cc1c2c(c(Nc3ccc(O)cc3)n3c1nc1ccccc13)CCC2	-0.32	-1.1
Cn1ncc(C(=O)CC#N)c1C(F)(F)F	-0.22	.
O=c1c(O)c(-c2ccc(O)cc2O)oc2cc(O)cc(O)c12	-0.26	-0.2
CCN(CC)C(C)C#Cc1ccccc1 (stereo unspecified)	-0.32	-2.0
Cn1ccc(NC(=O)Nc2ccccc2)n1	.	1.2
O=C(CC(c1ccccc1)c1cc(Br)ccc1O)N1CCCC1 (stereo unspecified)	-0.86	1.7
Cc1ccccc1OCC(=O)NC(c1ccccc1)c1c(O)ccc2ccccc12 (stereo unspecified)	.	1.3
O=C(CCN1c2ccccc2Sc2ccccc21)OC1CCOC1=O (stereo unspecified)	.	0.5
CCO/C=C1/C(=O)N(c2ccc(Cl)cn2)C(=O)c2ccccc21	.	-0.5
O=S(=O)(Nc1ncnc2sccc12)c1cccc(F)c1	.	0.0
CC1CCCC(NC(=O)CCn2c(=O)oc3ccccc32)C1C (stereo unspecified)	-1.2	1.5
CCCc1ccc(Oc2ccc(NC(=O)C3CC3C(=O)O)cn2)c(OC)c1 (stereo unspecified)	.	0.2
CN1CCN(CC(O)c2ccccc2)CC1 (stereo unspecified)	-0.44	.
O=C(O)COc1ccccc1/C=c1\sc2nc3ccccc3n2c1=O	0.057	17
CC1CCN(C(=O)c2cccc(Cl)c2)CC1	0.59	0.2
CCOC(=O)c1cccc(NC(=O)n2ncc3c(C)cccc32)c1	0.21	-0.6
O=S1(=O)CCC(N2CCN(c3nc(C(F)(F)F)nc4ccccc34)CC2)C1 (stereo unspecified)	.	-0.2
COC(=O)C(C)Sc1nc2c(cnn2-c2ccccc2)c(=O)[nH]1 (stereo unspecified)	-0.52	0.0
CCn1c(SCC(=O)c2cc(C)n(-c3ncn[nH]3)c2C)nc2cc(S(N)(=O)=O)ccc21	.	2.3
COc1ccc(C(=O)CSc2ccc3nnc(-c4ccccn4)n3n2)cc1	-1.7	3.3
CCOC(=O)N1CCC(NC(=O)c2cc(C)cc(C)c2)CC1	-0.91	.
O=C(O)c1c(-c2ccccc2)c(-c2ccccc2)n[nH]c1=O	0.35	2.1
CC(C)(C)C(=O)Nc1ccccc1C(=O)Nc1cccnc1	-0.39	2.3
CCc1ccc2[nH]c(=O)c(C(c3nnnn3Cc3ccccc3)N(Cc3ccccc3)Cc3ccco3)cc2c1 (stereo unspecified)	-0.57	2.1
Cc1sc2ncnc(N3CCOCC3)c2c1-c1ccc(F)cc1	.	1.8
C=CCNc1nc(Nc2ccc(OC)cc2)nc(OC)n1	0.25	0.8
CCOC(=O)Cc1cc(=O)n2[nH]c(-c3ccccc3)cc2n1	-0.57	-1.6
COC(=O)CC1COc2ccccc2N1C(=O)c1ccc(Cl)cc1 (stereo unspecified)	0.48	.
CCOC(=O)c1sc(=S)n(Cc2ccco2)c1C	-0.086	1.9
N#CCCN(Cc1cccnc1)C(=O)Nc1ccccc1	.	0.5
Cc1ccc(S(=O)(=O)N2CCC3(CC2)OCCO3)cc1	0.36	4.1
O=C1CC(c2nc3ccccc3[nH]2)CN1CCc1ccccc1 (stereo unspecified)	-0.86	-2.7
Oc1c(CN2CCCCC2)ccc2cccnc12	.	0.6
CCOc1ccc2oc(C(=O)OC3CCCC3=O)c(C)c2c1 (stereo unspecified)	.	-1.6
O=C(/C=C/c1ccc2c(c1)OCO2)N1CCN(S(=O)(=O)/C=C/c2ccccc2)CC1	.	-0.7
CCCc1cc(=O)n(CC(=O)NCc2ccccc2Cl)c(-n2nc(C)cc2C)n1	-0.68	1.1
NC(Cc1ccc2nsnc2c1)C(=O)O (stereo unspecified)	-0.72	-0.2
CC1SCC(NC(=O)c2ccccc2Cl)CS1 (stereo unspecified)	.	5.4
CC(=O)N1C(=O)C2(N=C(N)NC(Nc3cccc(C(F)(F)F)c3)=N2)c2ccccc21 (stereo unspecified)	3.4	-1.0
CS(=O)C1CCCCC1(O)CSc1nc(-c2cccs2)cc(-c2ccccc2)c1C#N (stereo unspecified)	.	0.8
O=C(NCc1ccco1)N(c1ccccc1)c1ccccc1	0.24	1.8
COC(=O)c1ccccc1NC(=S)NC(=O)/C=C/c1ccco1	0.59	-1.7
CCCNS(=O)(=O)C1CCS(=O)(=O)C1 (stereo unspecified)	-0.3	1.1
CCN(CC(=O)Nc1cccc(OC)c1)C(=O)Cn1c(=O)cnc2ccccc21	.	1.7
CC(=O)Nc1ccc(/C=N/NC(=O)c2ccccc2-n2cccc2)cc1	.	1.5
NC1CCN(c2nc(-c3ccc(F)cc3)cs2)CC1	0.028	-1.4
COc1ccc(-n2nnnc2SCSc2nnnn2-c2ccc(OC)cc2)cc1	-0.6	0.4
CC1=NN(c2ccc(C)c(C)c2)C(=O)/C1=C/c1ccc2c(c1)n(C)c(=O)n2C	.	3.0
CC(NC(=O)C1CCCCN1S(=O)(=O)c1cccc2nsnc12)C12CC3CC(CC(C3)C1)C2 (stereo unspecified)	.	-0.7
CCN(c1ccccc1)S(=O)(=O)c1ccc(Cl)cc1	0.7	-0.1
CCCn1c(=O)[nH][nH]c1=S	.	0.1
O=C(CCc1nnc(SCC(=O)N2CCc3ccccc32)[nH]c1=O)OCC(=O)N1CCc2ccccc21	.	-3.2

An excerpt from above in order of the KSHV LANA nucl value, smallest number first:
smiles | KSHV LANA nucl
NC(Cc1ccc2nsnc2c1)C(=O)O (stereo unspecified) | -0.72
COc1ccc(-n2nnnc2SCSc2nnnn2-c2ccc(OC)cc2)cc1 | -0.6
CCCNS(=O)(=O)C1CCS(=O)(=O)C1 (stereo unspecified) | -0.3
COC(=O)c1ccccc1NC(=S)NC(=O)/C=C/c1ccco1 | 0.59

Remaining list, next part
Structure	KSHV LANA nucl	Ab BasE inh
O=C(NC(Cc1ccccc1)C(=O)Nc1nnc(-c2ccco2)o1)OCc1ccccc1 (stereo unspecified)	.	1.6
O=C(C1CCCN(S(=O)(=O)c2cnc[nH]2)C1)N(CCc1ccccc1)Cc1ccccc1 (stereo unspecified)	-0.94	1.0
CSc1sc(-c2ccnc(SCC(=O)C(C)(C)C)n2)c2c1C(=O)CC(C)(C)C2	.	1.7
CC(C)C[N+]1(C)Cc2ccccc2C1	.	0.3
CCCC1(C(=O)OCC)NC(c2ccccc2F)C2C(=O)N(c3ccccc3)C(=O)C21 (stereo unspecified)	0.14	1.5
O=C(CN1CCC(O)(c2ccc(F)cc2)CC1)NCc1ccc(F)cc1	-0.31	-0.8
Cc1ccc(NCC(O)CSc2nc3c(cc2C#N)CCCC3)cc1 (stereo unspecified)	-0.72	2.4
S=C(NCc1ccccc1)N1CCn2cccc2C1c1cccnc1 (stereo unspecified)	-0.63	3.8
COc1ccc(-c2nc(CN(C)Cc3cccs3)cs2)cc1OC	.	-9.6
FC(F)Oc1ccc(N=C=S)cc1	.	-0.3
O=C(O)C(C(=O)/C=C/c1ccccc1)=C1SCS1	.	1.1
CSc1nnc(C2CCCN2CC(=O)Nc2ccc(Oc3ccccc3)cc2)n1C (stereo unspecified)	-0.33	4.5
N#Cc1cccc(C(=O)Nc2ccccc2)c1	.	0.2
O=C1CCc2cc(S(=O)(=O)NCC3CCCO3)cc3c2N1CC3 (stereo unspecified)	-0.89	1.5
CNC(=O)COc1c(C)cc(SC)cc1C	-0.15	1.3
CC1=NCCN1S(=O)(=O)c1ccc(I)cc1	0.18	-1.1
Cn1c(-c2ccccc2)c(CCO)c2ccccc21	-0.35	-1.7
CCN1CCN(C(=O)c2cc(Nc3ccc(C)c(C)c3)nc3ccccc23)CC1	0.45	-1.8
O=S(=O)(NCC1COc2ccccc2O1)c1ccc2c(c1)CCO2 (stereo unspecified)	0.2	-2.3
O=C(O)CSCCc1ccncc1	.	1.1
N=C1/C(=C2\NC(c3ccc(Br)cc3)=CS2)CC(=O)N1C1CC1	.	-5.1
Cc1ccc(C)n1CCOC(=O)c1cccc(S(=O)(=O)NCc2ccccc2)c1	.	0.9
NC(=O)C1CCN(CC(O)COc2ccccc2F)CC1 (stereo unspecified)	.	2.2
CCCc1cc(SCC(=O)OC)n2c(nc3ccccc32)c1C#N	0.86	1.4
COc1ccc(OCCC(=O)N2CCN(c3ccccc3)CC2)cc1	-0.73	1.4
Cc1c(C)n(Cc2ccc(Br)cc2)c(=O)n(Cc2ccc(Br)cc2)c1=O	.	0.4
CCn1c(=O)[nH]c(=O)c2cc(C(=O)c3cc(Cl)cc(Cl)c3O)cnc21	.	-0.2
CC(=O)NCCC(=O)Nc1ccc(C(F)(F)F)cc1	.	0.1
O=C(Nc1ccc(N2CCCCC2)cc1)c1ccc(F)cc1Cl	0.37	.
O=S(=O)(c1ccc(-c2ccon2)s1)N(Cc1ccccn1)Cc1ccccn1	.	-0.9
CC(C)(C)c1ccc(-c2nc(=O)[nH]n2-c2ccccc2)cc1	.	2.1
CC1CCN(C(=O)COc2ccc(C(C)C)cc2)CC1	-0.037	0.0
CC(=O)Nc1ccccc1OC(=O)c1cccc(C)c1	-1.5	0.2
O=C(Nc1ccccc1)OCCOc1ccccc1	0.43	-1.2
O=C(C1CCN(S(=O)(=O)c2ccccc2)CC1)N1CCc2ccccc21	-2.2	2.6
COc1ccc(O)c(C(=O)c2cnn(C(=O)CN3CCCC3=O)c2)c1	.	-0.7
COC(=O)c1cccc2c1NC(c1cccnc1)C1CC=CC21 (stereo unspecified)	-1	3.0
CCCN1C/C(=C\c2ccc(N(C)C)cc2)C(=O)/C(=C/c2ccc(N(C)C)cc2)C1	5.9	-18
O=C(O)CSc1ncnc2c1oc1ccccc12	.	2.2
NC(=O)C1CCN(C(=O)CCCc2nnc3n4nc(-c5ccccc5)nc4c4ccccc4n23)CC1	0.75	-1.0
CCN(CC)S(=O)(=O)c1ccc(N2Cc3ccccc3C2=N)cc1	.	0.7
CCn1nc(C)c(Br)c1C(=O)Oc1ccc(Cl)cc1	.	0.1
Cc1cccn2c(=O)c3cc(C#N)c(=O)n(Cc4ccco4)c3nc12	-0.64	4.2
CCN(CC)S(=O)(=O)c1ccc2oc(=S)n(CN(C(C)C)C(C)C)c2c1	.	2.4
CNCCCCOc1ccccc1Cc1ccccc1	1.1	.
Cc1c(O)nc(N)[nH]c1=O	1.2	1.6
CC1(C)CC(=O)C2=C(C1)NC(Nc1nc3ccccc3o1)=NC21CCCCC1	-0.68	1.1
CNC(=S)NC1=NCCS1	.	1.6
CSc1nc2ccc3nc(NC(=O)c4ccccc4C)sc3c2s1	.	-0.3
OCCN1CCN(CCCN2c3ccccc3Sc3ccc(C(F)(F)F)cc32)CC1	-0.2&0.3&0.043&0.099&-0.59	-1.4&-2.6
CC(C)Oc1ccc(C(=O)NCC(=O)Nc2ccccc2N2CCOCC2)cc1	.	0.6
Cc1ccccc1C(N)CC(=O)O (stereo unspecified)	0.084	.
Cc1ccoc1C(=O)Nc1cccc(Oc2ccccc2)c1	-0.54	0.5
NC(=NC(=O)c1ccc(Cl)cc1Cl)N1CCCC1	0.48	.
O=C(OCc1ccccc1Oc1ccccc1)c1ccccn1	.	0.8
N=C1C(c2nc3ccccc3[nH]2)=C(O)CN1NC(=O)COc1cccc(F)c1	.	0.4
COc1ccc(C(=O)NC(C(=O)Nc2ccc3c(c2)OCO3)C(C)C)cc1 (stereo unspecified)	.	0.5
Cc1ccc(-n2[nH]c(C)c(C=O)c2=O)cc1C	0.86	24
O=C1N=c2ccc(Br)cc2=C1c1sc(=S)n(-c2cccc(Br)c2)c1O	.	0.2
O=C(Nc1ccccc1)Oc1ccc2sc(=O)oc2c1	-0.52	-0.5
O=C(CN1C(=O)S/C(=C\c2ccc(O)cc2)C1=O)c1ccccc1	1.3	-3.1
COC(=O)N/N=C1\CCCCc2ccccc21	.	2.1
Cc1ccc(-c2noc(Cn3nc(C(=O)O)c4ccccc4c3=O)n2)cc1	.	2.5

Entries of single compounds, quoted from the list. Order of values: KSHV LANA nucl | Ab BasE inh
Entry for Cc1ccc(-c2noc(Cn3nc(C(=O)O)c4ccccc4c3=O)n2)cc1 → . | 2.5
Entry for CCN(CC)S(=O)(=O)c1ccc2oc(=S)n(CN(C(C)C)C(C)C)c2c1 → . | 2.4
Entry for Cc1c(O)nc(N)[nH]c1=O → 1.2 | 1.6
